High-throughput results from PubChem.
NPYLR7 agonist: agonists of mosquito NPYLR7 receptor, primary screen, cell-based, Aedes aegypti, calcium fluorescence, mosquito biting behavior | Aedes aegypti neuropeptide Y-like receptor 7 (NPYLR7) | HEK293T NPYLR7/Galpha15, GCaMP6s calcium fluorescence | activation, % at 10 µM | 0.15% of 270,000 active; in the data active = activation above about 40%;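 note: 0% = vehicle and 100% = reference agonist at the receptor; some compounds past the cut are filed as inactive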
NPYLR7 agonist max-min: further read-out of NPYLR7 agonist, marked with its call; activation, %; measured here: Max-Min RFU normalised activation; some inactives read as strong as hits;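 span of the calcium signal over five minutes; 0% = vehicle and 100% = native peptide agonist; compound fluorescence can raise it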
* = called active by the depositor; & = joins results of further samples.

Each structure is followed by: NPYLR7 agonist, NPYLR7 agonist max-min
#1 COCCN(Cc1nc(-c2ccc(C(=O)OC)cc2)oc1C)C(C)C
 : -7, -11
#2 CNS(=O)(=O)c1ccc(-c2nccn2CCc2ccco2)cc1
 : -1, -4
#3 CC(C)(CCl)C(=O)N1CCC2(CC1)NC(=O)c1cc(Cl)ccc1N2
 : 18, 26
#4 CCN1C(=O)NC(c2cccc(Oc3ccccc3)c2)C2=C1CN(C(Cc1ccccc1)C(=O)NC1CCCCC1)C2=O (stereo unspecified)
 : 3, 7
#5 O=C(OC1CCN(CC(F)(F)F)CC1)C1COc2ccccc21 (stereo unspecified)
 : 0, 2
#6 CC1CCN(c2onc(-c3ccccc3)c2CNCCN2CCOCC2)CC1
 : -8, -8
#7 O=C(c1cc(F)cc(F)c1)N1CCN(S(=O)(=O)c2ccc3c(c2)CCCC3)CC1
 : -6, -7
#8 Cc1cccc(-c2nc(SCC(=O)Nc3nccs3)c3c(=O)n(C)c(=O)n(C)c3n2)c1
 : -5, -9
#9 COc1ccc(C)cc1CN1CCCN(C(C)=O)c2ccccc21
 : 3, -2
#10 O=C(NCCc1csc(-c2cccnc2)n1)C1CNCCO1 (stereo unspecified)
 : 2, 2
#11 c1cnc(N2CCN(Cc3ccc4c(c3)OCO4)CC2)nc1
 : -8&22&-2, -13&14&27
#12 CC(C)COc1nc(-c2cccc(F)c2)n(-c2cccc(NCC(O)Cc3ccccc3)c2)n1 (stereo unspecified)
 : -3, 0
#13 Cc1c(C(=O)N2CCc3ccccc3C2)cnc2c(-c3ccc(C(C)C)cc3)cnn12
 : 0, -7
#14 CCOC(=O)c1ccc2c(c1)nc(SCc1ccc(Cl)c(C(F)(F)F)c1)n2Cc1cccc(F)c1
 : 22, 13
#15 Cc1ccc(-c2[nH]ncc2CNC(C)CCCC(C)(C)O)cc1C (stereo unspecified)
 : -5, -7
#16 O=C(Nc1ccc2[nH]c(=O)[nH]c2c1)C1CC1c1ccccc1Cl (stereo unspecified)
 : 0, -1
#17 O=C(c1ccccc1F)N(Cc1cccnc1)c1nc2c(Cl)cccc2s1
 : -25, -12
#18 CCN(CC)c1ncccc1CNC(=O)c1c(F)cccc1OC
 : 2, 2
#19 Cc1nc(CCNC(=O)c2cn(CC3COc4ccccc4O3)nn2)sc1C (stereo unspecified)
 : 11, 3
#20 OCc1nc2ccc(/C=C/c3ccccc3)cc2[nH]1
 : -8, -9
#21 Cc1ccc(N2C(=O)NC(=O)/C(=C\c3cccs3)C2=O)cc1
 : 65*, 58*
#22 CC(C)c1nnc(SCC(=O)N2CCCCC2)c2c1cnn2-c1ccc(F)cc1
 : -13, -18
#23 Fc1ccc(OCc2nc(-c3cccs3)no2)c(F)c1
 : 0, -2
#24 Cc1cccnc1C(NC(=O)C1CCN(Cc2ccc3c(c2)OCO3)CC1)c1ccccc1 (stereo unspecified)
 : 6, 8
#25 Nc1c(N2CCC(c3ccccc3)CC2)ncnc1-n1cccn1
 : 6, 6
#26 Cc1cc(C)n(-c2ccc(NC(=O)C3CCCCN3C(=O)c3ccc[n+]([O-])c3)cc2)n1 (stereo unspecified)
 : 3, -3
#27 CCNC(=O)N1CCCC(OCc2ccc(F)c(F)c2)C1 (stereo unspecified)
 : -7, -2
#28 CCOc1ccc(Br)c(C=Nc2ccc3oc(=O)ccc3c2)c1O
 : 9, 10
#29 CCOC(=O)C1(C)CCN1C(=O)c1cccnc1 (stereo unspecified)
 : -3, -8
#30 O=S(=O)(c1ccc(-n2cccn2)cc1)N1CCOCC1
 : 1, 0
#31 CC1=C(C(=O)N2CCC(C(=O)Nc3ccc(Oc4ccccc4)nc3)CC2)OCCO1
 : 19, 9
#32 Cn1cccc1C(=O)NNC(=O)Cc1ccccc1
 : -2, -6
#33 N#CCS(=O)(=O)c1ccccc1
 : 1, 1
#34 CC(C(=O)O)n1c(O)c(C=Nc2ccccc2)sc1=S (stereo unspecified)
 : -8, -16
#35 Cc1ccc(C2C(=C(O)c3ccccc3)C(=O)C(=O)N2CCCn2ccnc2)cc1 (stereo unspecified)
 : 12, 18
#36 O=C1C(=O)N(CN2CCCC2c2cccs2)C(=O)N1CCc1cccs1 (stereo unspecified)
 : 2, 5
#37 CCC(c1nc2ccccc2c(=O)n1-c1ccc(C)c(C)c1)N(CC)C(=O)Nc1ccc(C)cc1 (stereo unspecified)
 : 13, 15
#38 COc1ccccc1C(=O)NC(Cc1ccccc1)c1nnc(SCc2ccc(F)cc2)n1-c1cc(Cl)ccc1C (stereo unspecified)
 : 13, 14
#39 Cc1cc(C(=O)CN(C)S(=O)(=O)c2cccc(Cl)c2)c(C)n1C
 : 0, 0
#40 CCOc1ccccc1-n1c(=O)[nH]c2c(C(N)=O)nc(C3CCCCC3)nc21
 : 15, 6
#41 Fc1cc(Br)ccc1N=Cc1ccncc1
 : 7&-6, 7&-8
#42 CC(=O)c1sc(NC(=O)CCn2[nH]c(=O)ccc2=O)nc1C
 : 5, 1
#43 Cc1cccc(OCC(O)CNC(=O)c2cnc3ccccn3c2=O)c1 (stereo unspecified)
 : 4, 1
#44 CCn1c(CC2CCN(C/C(C)=C/c3ccco3)CC2)n[nH]c1=O
 : -6, -13
#45 Cn1c(SCCN2CCOCC2)nc2scc(-c3cccs3)c2c1=O
 : -2, 20
#46 Cc1ccccc1OCCSc1nnc(-c2cccnc2)n1C
 : 6, 3
#47 Cc1cnc(C(=O)OCC(=O)c2ccc3ccccc3c2)cn1
 : 3, 8
#48 CSc1nc(N)nc(SCC(=O)C(C)(C)C)c1C#N
 : 16, 16
#49 O=C(c1ccc(-c2ccsc2)nc1)N1CCC(Oc2cccnc2)CC1
 : 0, -2
#50 Cc1ccc(N=Nc2c(C)[nH]n(-c3ccccc3)c2=O)cc1Br
 : -6, -9
#51 CCOC(=O)C(c1cc(C)cc(C)c1)C1C=CC(NC(=O)c2ccc(C(F)(F)F)c(F)c2)C1 (stereo unspecified)
 : -4, -16
#52 CCN1C(=O)NC(c2ccc(Cl)cc2)C2=C1CN(C(Cc1ccccc1)C(=O)NCc1cccc(F)c1)C2=O (stereo unspecified)
 : 0, 4
#53 C=CCn1c(N2CCN(CC(=O)OC)CC2)nc2c1c(=O)[nH]c(=O)n2C
 : -6, -9
#54 O=C(c1ccc(CSc2nnc3ccccn23)cc1)N1CCCCC1
 : -7, -11
#55 COCCNC(=O)c1cnc(C)nc1C
 : 7, 3
#56 COc1cccc(NC(=O)N2CCC(Oc3nc4c(C)ccc(C)c4s3)CC2)c1OC
 : -3, -3
#57 COc1ccc(NC(=O)c2oc3ccccc3c2NC(=O)c2ccco2)cc1OC
 : -3, 5
#58 Cc1cccc(-n2c(C)nnc2SC2CCCCNC2=O)c1 (stereo unspecified)
 : 11, 8
#59 CCN(CC)C(=O)CSc1ccc(Cl)nn1
 : -24, -33
#60 CCn1cc(C(CC(=O)O)c2cccc(F)c2)c2ccccc21 (stereo unspecified)
 : -1, 1

Some values from the results shown.
compound 57 in NPYLR7 agonist max-min is entered as 5
compound 44 in NPYLR7 agonist is entered as -6
compound 49 in NPYLR7 agonist max-min is entered as -2
compound 54 in NPYLR7 agonist is entered as -7
compound 46 in NPYLR7 agonist is entered as 6
compound 50 in NPYLR7 agonist max-min is entered as -9

Reprinted at random: three compounds from above
Each structure is followed by: NPYLR7 agonist, NPYLR7 agonist max-min
#32 Cn1cccc1C(=O)NNC(=O)Cc1ccccc1
 : -2, -6
#58 Cc1cccc(-n2c(C)nnc2SC2CCCCNC2=O)c1 (stereo unspecified)
 : 11, 8
#54 O=C(c1ccc(CSc2nnc3ccccn23)cc1)N1CCCCC1
 : -7, -11

Next part
Each structure is followed by: NPYLR7 agonist, NPYLR7 agonist max-min
#61 CC1CCc2c(sc3ncn(CC(=O)N4CCCCCC4)c(=O)c23)C1 (stereo unspecified)
 : 2, -2
#62 COc1ccc(C(=O)N2CCC3(CC2)C(=O)N(CC(=O)NCCc2ccccc2OC)CN3c2ccccc2)cc1
 : 17, 16
#63 CCCN(CCC)Cc1ccc(C(=O)NC(C)c2cnn(C)c2C)cc1 (stereo unspecified)
 : 10, 5
#64 CN(C)S(=O)(=O)n1cc(/C=C/c2nc(N)nc(-c3ccccc3O)n2)c2ccccc21
 : 3, 0
#65 CCC(C)NC(=O)c1cc(-c2ccc(OC)cc2)nc2cc(-c3ccc(Cl)cc3)nn12 (stereo unspecified)
 : -6, -2
#66 N#CCCN(CCC#N)Cn1nc(-c2ccco2)oc1=S
 : 5, 28
#67 COc1ccc(OCC(=O)N2CCOC(COc3ccc4c(c3)CCCC4)C2)cc1 (stereo unspecified)
 : 22, 14
#68 O=C(Nc1ccc(OC2CCCC2)cc1)C1CC(=O)N(CC(F)(F)F)C1 (stereo unspecified)
 : 5, 2
#69 CC1(N(O)C=C2C=CC=N2)CCCCC1=O (stereo unspecified)
 : -8, -16
#70 O=C(CN1C(=O)/C(=C/c2ccccc2)SC1=S)Nc1cccnc1
 : 2, 10
#71 Cc1c(N)c(-c2cccc(C(F)(F)F)c2)nn1C(=O)OC(C)(C)C
 : 10, 5
#72 CN(CCO)c1ccc(C(=O)N2CCCC(Cn3ccnc3)C2)cn1 (stereo unspecified)
 : 2, -1
#73 Clc1ccc2c(NC3CCCCC3)nc(-c3ccccc3Cl)nc2c1
 : 16, 13
#74 CC(NC(=O)/C=C/c1ccccc1)c1nc2cc(Cl)ccc2c(=O)n1C (stereo unspecified)
 : -2, 12
#75 CC(=O)CCc1ccc(OS(=O)(=O)c2ccc3c(c2)CCN3C(C)=O)cc1
 : 5, -6
#76 CCN1C(=O)C2(SC(C)(C)CN2C(=O)Nc2cccc(OC)c2)c2cc(F)ccc21 (stereo unspecified)
 : -1, 3
#77 Cc1cccc(OCCCN(C)C(=O)CN)c1C
 : 1, -10
#78 OCCOCCN1CCN(C2=Nc3ccccc3Sc3ccccc32)CC1
 : -5&-11, -10&-18
#79 COCCn1cc(NC(=O)Nc2ccc(C)c(C)c2)c2ccccc21
 : 8, 3
#80 CN(C)S(=O)(=O)CCCN1CCCC(CCc2c(F)cccc2F)C1 (stereo unspecified)
 : 0, -9
#81 Cc1cccc(-n2cc(-c3ccccc3)c3c(=O)[nH]cnc32)c1
 : -6, -9
#82 CCC(C)c1nc(N2CCC(N3CCCCC3)CC2)c2c3c(sc2n1)CCCCC3 (stereo unspecified)
 : 4, 9
#83 CC(=O)c1ccc(NC(=O)N2[C@H]3CCNC[C@@H]2CC3)cc1
 : -5, -9
#84 CN(C)c1ccc(CC(=O)N[C@@H](CCc2ccccc2)C(=O)NCC#N)cc1
 : 19, 11
#85 COc1ccc(OC)c(/C=C2\N=C(c3cccc(C)c3)OC2=O)c1
 : -1, -4
#86 CCC(CC)C(=O)N(C)c1c(C)nc2c(OC)cccn12
 : 3, -8
#87 COc1cc(C(=O)N2CCC(c3nc4ccccc4s3)CC2)c([N+](=O)[O-])c(OC)c1OC
 : 0, 1
#88 CC1=NN(C(=O)CSc2nc3ccccc3s2)C(C)(O)C1 (stereo unspecified)
 : 2, 1
#89 CS(=O)(=O)c1ccc(-c2ccccc2OCCn2ccnc2)cc1
 : -2, -2
#90 Cc1cccc(S(=O)(=O)Nc2ccc(CCNC(=O)NC(C)C)cc2)c1
 : 30, 17
#91 O=C1CSC(c2cccs2)N1CC(O)c1ccccc1 (stereo unspecified)
 : -1, -4
#92 CC1(C)CC(=O)C2C(=NC3=C(C(=O)CC(C)(C)C3)C2c2ccc(Cl)cc2Cl)C1 (stereo unspecified)
 : 1, -3
#93 CC(C)COc1nc(-c2cccc(F)c2)n(-c2ccc(NC(=O)c3ccc(F)cc3)cc2)n1
 : 2, 9
#94 COc1ccc(-n2c(C)c(C)n3c4c(=O)n(CCN5CCOCC5)c(=O)n(C)c4nc23)cc1
 : 33, 16
#95 COc1cccc(-c2nc(C=Nc3ccc4ccccc4c3)c(O)o2)c1
 : -1, -8
#96 O=C(NC1CC1)c1cc(=O)c(OCc2ccc(F)cc2)co1
 : -2, -2
#97 Cc1cccnc1CNc1nnc(-c2cc(Cl)cc(Cl)c2)s1
 : 0, 0
#98 COc1ccc(-c2cccc(-n3cncc3C(=O)NCc3ccc(Cl)cc3)c2)cc1OC
 : -2, -11
#99 Cn1cc(CN2CCN(Cc3ccsc3)C(CCO)C2)c2ccccc21 (stereo unspecified)
 : 0, -4
#100 Cc1cc(C)cc(-c2nc3ccccn3c2NC(=O)COc2ccc(Cl)cc2)c1
 : -2, 6
#101 Cc1nc2c(c(N(C)C)n1)CCN(C(=O)[C@H](Cc1ccccc1)N(C)C)C2
 : 8, 6
#102 CCc1nc2c(OCCC3CCCCC3)cccn2c1N(C=O)Cc1ccccc1
 : 4, 0
#103 CN(CCCO)c1nc(C(C)(C)C)nc2c1cnn2C
 : -6, -16
#104 Cc1noc(C)c1CNC(C)CN1CCOCC1 (stereo unspecified)
 : 21, 8

Given field by field: entries from further up
101) Cc1nc2c(c(N(C)C)n1)CCN(C(=O)[C@H](Cc1ccccc1)N(C)C)C2
  NPYLR7 agonist: 8 | NPYLR7 agonist max-min: 6
102) CCc1nc2c(OCCC3CCCCC3)cccn2c1N(C=O)Cc1ccccc1
  NPYLR7 agonist: 4 | NPYLR7 agonist max-min: 0
103) CN(CCCO)c1nc(C(C)(C)C)nc2c1cnn2C
  NPYLR7 agonist: -6 | NPYLR7 agonist max-min: -16
104) Cc1noc(C)c1CNC(C)CN1CCOCC1 (stereo unspecified)
  NPYLR7 agonist: 21 | NPYLR7 agonist max-min: 8

Copied from above, entries 100–104
Each structure is followed by: NPYLR7 agonist, NPYLR7 agonist max-min
#100 Cc1cc(C)cc(-c2nc3ccccn3c2NC(=O)COc2ccc(Cl)cc2)c1
 : -2, 6
#101 Cc1nc2c(c(N(C)C)n1)CCN(C(=O)[C@H](Cc1ccccc1)N(C)C)C2
 : 8, 6
#102 CCc1nc2c(OCCC3CCCCC3)cccn2c1N(C=O)Cc1ccccc1
 : 4, 0
#103 CN(CCCO)c1nc(C(C)(C)C)nc2c1cnn2C
 : -6, -16
#104 Cc1noc(C)c1CNC(C)CN1CCOCC1 (stereo unspecified)
 : 21, 8

The list is partial (hit frequency here may not be typical).
